Compound activity from PubChem BioAssay.
MLL AF4-AF9 inh – inhibitors of AF4 peptide binding to AF9, primary screen, biochemical, AlphaScreen, biotin-AF4 peptide, FLAG-AF9, single point. Protein AF-9 (Homo sapiens), P42568. inhibition, % at 10 µM. actives 0.47% (n = 350,000);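 active = every replicate reaching a set inhibition limit, whatever the replicate mean, cut at about 25% in these data; inconclusive = mean inhibition reaches that limit but some replicates miss it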;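 note: 0% = plate neutral control median and 100% = total signal loss; the record names both 10 and 1 µM as test concentration; the first replicate is given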
Target sequence (P42568 whole entry, looked up): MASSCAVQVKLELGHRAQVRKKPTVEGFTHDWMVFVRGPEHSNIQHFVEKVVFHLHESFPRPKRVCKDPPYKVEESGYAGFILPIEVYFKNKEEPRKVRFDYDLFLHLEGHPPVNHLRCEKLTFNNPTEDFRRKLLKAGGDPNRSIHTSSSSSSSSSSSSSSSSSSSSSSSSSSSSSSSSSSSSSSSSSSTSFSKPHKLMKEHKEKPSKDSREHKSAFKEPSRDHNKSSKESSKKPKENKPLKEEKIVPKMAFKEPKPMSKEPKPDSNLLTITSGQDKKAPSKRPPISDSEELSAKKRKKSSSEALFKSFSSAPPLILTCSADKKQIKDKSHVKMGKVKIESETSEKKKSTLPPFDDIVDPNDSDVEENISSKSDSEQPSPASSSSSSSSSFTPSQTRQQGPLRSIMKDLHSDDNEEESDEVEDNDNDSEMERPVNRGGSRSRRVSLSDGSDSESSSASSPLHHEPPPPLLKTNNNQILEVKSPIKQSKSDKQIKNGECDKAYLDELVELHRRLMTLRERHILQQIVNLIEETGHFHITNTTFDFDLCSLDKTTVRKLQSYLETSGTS
Ecoli rRNA inh – reduced GFP signal of wild-type E. coli, primary screen, bacterial rRNA inhibitor project, GFP/RFP fluorescence, OD600, single point | GFP signal change (wild-type ribosome), % (no concentration beside the values) | actives 1.6% (n = 350,000) | E. coli WT GFP vs humanized-ribosome RFP mutants, 24 h; active compounds read low; DMSO median 0, no signal -100 | AID 720706, 2013;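 active = significant combined selectivity score with lowered wild-type GFP, culture density cut under 30%, mutant RFP and density less affected; inactive = any of these conditions unmet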; note: one replicate is shown; some compounds called inactive have numbers as strong as hits
T cruzi inh – inhibitors of intracellular T. cruzi growth, primary screen, luminescence, NIH3T3 host cells. T. cruzi beta-gal in NIH3T3, 90 h. inhibition, % (no concentration beside the values). actives 1.4% (n = 300,000). AID 1885, 2009;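 active = mean inhibition across valid replicates above about 55%, limit read from the data; inconclusive = mean below that limit but half or more replicates reach it; inactive = mean below it, under half of replicates reach it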;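 note: signal also drops with host cell toxicity which is not excluded here; 0% = plate median of DMSO wells and 100% = zero luminescence signal; higher percent means less beta-gal luminescence so fewer parasites; stock transfer was 50 nL into about 50 µL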
Bfl-1 A1 inh – caspase 3/7 activation in MEF A1-2A-BIM cells, primary screen, A1 inhibitor project, cell-based, luminescence, HTS; Caspase-Glo 3/7 luminescence, 3 h; percent of clofoctol response, vehicle zero; caspase activation, % (test concentration not listed); actives 0.066% (n = 330,000);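 active = over half of replicate activation scores above 10%, or exactly half above 10 with the replicate mean above 10; inconclusive = replicate mean below 10 yet half the replicates above 10; inactive = over half of replicates below 10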;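 note: wells of about 30 µL received 50 nL stock; many hits fall short of the cut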
RanGTP-Impb inh – inhibitors of RanGTP-importin-beta interaction, primary screen, biochemical, FRET, CFP-Ran, YFP-importin-beta, homogeneous; cell-free CFP-Ran/YFP-importin-beta FRET ratio; inhibition, % (test concentration not listed); AID 2216, 2009; actives 1.1% (n = 300,000); Ran GTPase (GTP-bound) - importin-beta complex;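 active = most replicates above 15%; inconclusive = exactly half above 15%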;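 note: 0% = DMSO wells and 100% = Ran loaded with GDP instead of GTP; wells of about 40 µL received 100 nL stock; the first replicate is given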
Calb FLC – C. albicans growth inhibition with fluconazole, primary screen, CaCi-2 strain, Alamar Blue fluorescence. growth inhibition, % (test concentration not listed). C. albicans CaCi-2 (fluconazole-resistant clinical isolate) + fluconazole, 48 h. AID 1979, 2009. actives 0.57% (n = 300,000);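 active = most replicates above 75%; inconclusive = exactly half above 75%; inactive = most below 75%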;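 note: all wells also contain fluconazole at 8 µg/ml as a sub-toxic cotreatment; 0% = median of DMSO wells and 100% = median of geldanamycin control wells; wells of about 8 µL received 7.5 nL stock; the first replicate is given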
Vif A3G – inhibitors of Vif binding to APOBEC3G peptide, primary screen, biochemical, TR-FRET, GST-Vif 1-94, biotin-A3G peptide, dose response retest (AID 1117319); TR-FRET GST-Vif / biotin-A3G peptide binding; higher % means a stronger effect; test concentration not given here; strong numbers were not always called active; actives 0.57% (n = 260,000); one-dose inhibition, %; IC50 in µM for titrated hits;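 active = above the screen mean plus three standard deviations and confirmed in dose response; inconclusive = results disagree or hit not tested in dose response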;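 note: Vif residues 1-94 fused to GST binding biotinylated APOBEC3G peptide 110-148; 0% = full assay without inhibitor and 100% = GST in place of GST-Vif; retest series ran down from 100 µM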
Beta apoptosis – inhibitors of cytokine-induced beta cell apoptosis, primary screen, luminescence | INS-1E cytokine-induced death, ATP luminescence, 48 h; percent of positive-control rescue, neutral wells zero | protection from apoptosis, % (no concentration beside the values) | actives 0.8% (n = 300,000) | AID 435005, 2010;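 active = all replicates at 75% or more, or half of them and the mean; inconclusive = half reach 75% but not the mean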;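 note: 0% = cytokine-treated negative control wells and 100% = positive control rescue; higher means more ATP so stronger rescue from cytokine killing; wells of about 40 µL received 100 nL stock; the first replicate is given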
Ecoli rRNA inh OD600 – further read-out of Ecoli rRNA inh, marked with its call; OD600 change, %; measured here: OD600 growth;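 optical density of the mix in the first replicate; 0 = DMSO median and -100 = no signal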
Ecoli rRNA inh RFP – second read-out of Ecoli rRNA inh, no call of its own (marks repeat the call); RFP signal change, %; measured here: RFP humanized mutant strains;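 first replicate; 0 = DMSO median and -100 = no signal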
Numbers without * were called inactive; ? = inconclusive; / = not tested or not shown. Only part of the results is shown; rates above refer to the full screens.

SMILES	MLL AF4-AF9 inh	Ecoli rRNA inh	Ecoli rRNA inh OD600	Ecoli rRNA inh RFP	T cruzi inh	Bfl-1 A1 inh	RanGTP-Impb inh	Calb FLC	Vif A3G	Beta apoptosis
CC(C)C(=O)Nc1cccc(-c2nc3ccccc3c(=O)o2)c1	/	/	/	/	-20	-2.9	4.5	4	/	-4
Cc1ccc(S(=O)(=O)N2CCOCC2)cc1NC(=O)COC(=O)c1ccc2c(c1)OCCO2	0.0	-1	5	0.0	-7	0.7	?	2	-7%	1
COc1ccc(S(=O)(=O)NCc2ccc(C(=O)NCc3cccnc3)cc2)cc1	-1.4	-9	4	-7.2	-7	-0.1	-0.9	-10	-5%	3
COc1ccc(-c2ccc3c(N)c(C(=O)NC(C)C)sc3n2)cc1OC	-13	/	/	/	9	-2.8	0.3	2	?	4
O=C(CN1CCOCC1)Nc1ccc(Cl)c(Cl)c1	/	17	9	1.8	-6	0.4	-1.6	7	3%	-2
COC(=O)c1ccc2c(=O)[nH]c(CCl)nc2c1	0.0	15	11	-1.5	-17	0.2	/	63	?	-9
CNS(=O)(=O)c1ccc(NC(=O)C2CC(=O)N(c3ccc(Cl)cc3)C2)cc1 (stereo not given)	-3.0	-16	-15	-0.1	-13	0.8	1.8	0	/	-2
COCCn1c(C)cc(/C=C(\C#N)C(=O)OCC(=O)N(C)c2c(N)n(Cc3ccccc3)c(=O)[nH]c2=O)c1C	7.6	8	10	3.5	-3	0.9	-1.1	6	11%	-2
CCCCc1cc(=O)oc2cc(OCC(=O)NCCN3CCOCC3)ccc12	-1.4	8	6	2.5	5	2.0	-1.7	-1	/	-3
CO/N=C(/CNC(=O)c1ccccc1Cl)c1ccc(Cl)cc1	/	/	/	/	-5	-0.5	-4.1	?	29%	-6
CCOC(=O)/C(=N/Nc1ccc(OC)cc1)Sc1nnc(CCc2ccccc2)n1-c1ccccc1	-6.6	-13	-15	2.8	10	0.2	/	-13	-6%	7
O=C(Cc1ccccc1)N1CCN(c2ncccn2)CC1	-1.5	0	5	0.7	-2	-0.1	0.3	-21	-3%	-5
O=C(CSc1ccccc1F)NCCN1C(=O)CSC1=O	1.9	-4	-4	0.8	/	0.6	/	/	/	-3
Cc1ccc(OCC(=O)Nc2oc(-c3ccccc3)c(-c3ccccc3)c2C#N)cc1	/	/	/	/	10	0.8	-1.1	-4	3%	-4
COc1ccc(C2Nc3ccccc3C(=O)N2c2ccc(C)cc2)cc1Cn1nc(C)c([N+](=O)[O-])c1C (stereo not given)	2.6	7	4	0.7	20	-1.0	5.6	9	-1%	8
CCCN1CCC(NC(=O)CC2C(=O)NCCN2Cc2ccccc2C)CC1 (stereo not given)	2.2	12	10	3.2	4	0.1	-1.0	4	29%	-5
COc1ccc(OCCOC(=O)c2nc3nccc(C)n3n2)cc1	-2.8	-2	-1	-1.7	-10	0.3	-1.4	-9	-3%	-1
Cc1ccc(-c2cc(C(=O)Nc3ccccc3C)c3ccccc3n2)o1	/	/	/	/	-13	1.9	-0.8	-16	1%	/
CCNC(=S)N1CCCC(C(N)=O)C1 (stereo not given)	-2.2	12	14	-1.8	2	-0.7	-1.8	-1	-4%	-3
CCOC(=O)Nc1sc(C(=O)N(CC)CC)c(C)c1C(=O)OCC	/	/	/	/	-2	0.0	-2.3	-8	-5%	-3
CCC(=O)OCC(=O)Nc1cc(S(=O)(=O)N(C)C)ccc1Cl	-0.8	8	9	1.5	-12	2.1	0.4	16	5%	-6
CCCCCCC(=O)N(O)C1CC(=O)N(c2ccc(Cl)cc2)C1=O (stereo not given)	-2.5	8	9	4.7	-3	-0.3	-3.5	-2	/	/
COc1ccc(CNC(=O)Cn2ncn3c(cc4ccccc43)c2=O)cc1	-2.8	5	-2	-7.6	-6	-0.5	2.1	0	4%	-4
Cc1ccc2c(c1)nnn2C1CCN(S(=O)(=O)c2cccc(S(=O)(=O)N(C)C)c2)CC1	/	/	/	/	-5	-0.7	-2.2	0	-2%	30
Cn1c(=O)n(CCOc2ccccc2Cl)c2ccccc21	/	/	/	/	5	-0.4	-2.0	10	29%	2
Cn1c(N)c(C(=O)COC(=O)/C=C/c2cccc(Cl)c2)c(=O)n(C)c1=O	-1.6	0	5	0.7	/	2.2	/	/	4%	-8
Cc1cccc(C)c1NS(=O)(=O)c1cc2c3c(c1)CCN3C(=O)CC2	5.7	2	2	2.2	1	-0.1	3.3	-2	4%	-1
COCCN(C(=O)COc1ccccc1C#N)c1c(N)n(Cc2ccccc2)c(=O)[nH]c1=O	-0.6	24	15	0.4	-1	0.2	-1.5	/	0%	-1
N=c1c2c(ncn1CCCO)Oc1ccc3ccccc3c1C2c1ccccc1 (stereo not given)	11	-19*	-11*	1.3*	22	0.3	1.0	29	?	111*
COc1ccc2ccccc2c1/C=N/NC(=O)c1sc(N)c(C#N)c1C	8.5	4	4	-1.6	-4	0.5	4.4	-2	/	-5
CN1CCN(c2ccc(NC(=O)c3ccc(Br)o3)cc2)CC1	2.9	2	6	0.9	4	-5.9	1.6	5	/	3
CCOC(=O)CC(=O)CSc1nc2cc(C)ccc2cc1C	/	/	/	/	-10	0.8	4.1	1	1%	/
C=CCN(c1ccccc1)S(=O)(=O)c1cccc(C(=O)N(CC)CC(=O)Nc2c(F)cccc2F)c1	-11	-8	-17	-2.7	6	0.1	3.6	-4	/	0
CC(CN(C)Cc1ccccc1)OC(=O)c1ccc(F)cc1 (stereo not given)	3.2	/	/	/	22	-0.2	?	1	6%	-3
CC1CC(C)CN(CCCNC(=O)c2cn(C)c3ccc(S(=O)(=O)N4CCCC4)cc3c2=O)C1 (stereo not given)	3.7	8	11	7.1	14	0.7	1.1	-4	20%	-1
COc1cccc(-n2c(=O)[nH]cc(C(=O)Nc3ccc(NC(C)=O)cc3)c2=O)c1	-4.3	9	10	-1.8	-9	-0.1	4.2	-1	-2%	-1
O=C(Nc1cccc(Cl)c1Cl)Nn1cnnc1	-1.0	6	4	-3.1	1	1.3	2.7	9	/	2
O=C(NN1C(=O)C2C3C=CC(O3)C2C1=O)c1cccc(O)c1 (stereo not given)	-20	3	2	6.1	10	2.4	-0.9	1	/	-1
CCOC(=O)C(NCc1ccc(OC)cc1)(NC(C)=O)C(F)(F)F (stereo not given)	0.2	4	-2	-3.9	-8	-0.5	3.0	4	26%	/
COc1ccc(S(=O)(=O)N2CCCC(C(=O)Nc3cccnc3)C2)cc1Cl (stereo not given)	/	/	/	/	0	0.0	-0.9	2	17%	-11
O=C(NCCCN1CCN(Cc2ccccc2)CC1)C1CCN(S(=O)(=O)N2CCC3(CC2)OCCO3)CC1	-1.4	11	8	-1.2	3	1.7	1.1	45	8%	-6
CC1CCCN(C(=O)c2cc(S(=O)(=O)N3CCCCC3)c[nH]2)C1 (stereo not given)	-1.9	9	4	3.8	-10	-0.2	2.5	-8	/	0
CCOC(=O)C1=C(C)NC(=O)NC1c1ccc(OC)c(Cl)c1 (stereo not given)	8.8	-12	-12	1.5	-4	-0.2	-2.2	-6	-2%	-7
OCC1(Cc2ccc(F)cc2F)CCCN(Cc2ccc(Cl)cc2)C1 (stereo not given)	-4.7	-40	-69	-2.9	38	-0.6	0.7	6	/	/
COc1ccc(C(=O)/C=C/N(C)C)cc1OC	/	/	/	/	/	-0.2	-0.1	3	1%	8
CC(C)c1ccc(C2C3CSCC=C3C(C#N)=C(N)C2(C#N)C#N)cc1 (stereo not given)	/	/	/	/	11	0.5	16*	-3	6%	-3
Cn1c(=O)c2c(nc3n2CCS3)n(C)c1=O	8.5	13	9	-2.7	-1	-0.4	1.1	4	-6%	0
CN(C)CCCN(C(=O)c1sc2ccccc2c1Cl)c1nc2ccc(F)cc2s1	/	/	/	/	43	-0.4	3.1	-7	-16%	-1
CN=C(Nc1ccc2c(c1)OCO2)SC1CC(=O)N(c2ccccc2)C1=O (stereo not given)	/	/	/	/	1	1.2	1.8	-3	25%	-1
COC(=O)C1=C(C)N(Cc2ccccc2)C(=NCC2CC2)N[C@H]1c1ccccc1	5.5	1	-6	5.2	/	-0.5	/	/	/	7
CC(=O)NC1(c2ccccc2)CCN(c2cc(C)nc(-c3ccccc3)n2)CC1	1.0	13	14	0.2	-9	-0.5	0.5	-35	3%	-2
